Compound activity: PubChem, National Center for Advancing Translational Sciences (NCATS)
HPGD inh – HPGD (human) dehydrogenase inhibition. AID 894. P15428. hit rate 4.3% among 150,000. Potency, µM, inactives show at the top dose activity change, negative = inhibition, actives largely listed as inhibitors. purified HPGD, NADH fluorescence kinetic, PGE2 substrate; active = well fitted inhibition curve with a large enough effect (not every such curve was filed as active); inconclusive = small, poorly fitted or top-dose-only effect, or another doubt; inactive = no such curve, though single readings can be large or run the other way;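 also: top concentration of the series not given in the record; plate controls included wells without enzyme; inactives centre near -10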
Target sequence (P15428 whole entry, looked up): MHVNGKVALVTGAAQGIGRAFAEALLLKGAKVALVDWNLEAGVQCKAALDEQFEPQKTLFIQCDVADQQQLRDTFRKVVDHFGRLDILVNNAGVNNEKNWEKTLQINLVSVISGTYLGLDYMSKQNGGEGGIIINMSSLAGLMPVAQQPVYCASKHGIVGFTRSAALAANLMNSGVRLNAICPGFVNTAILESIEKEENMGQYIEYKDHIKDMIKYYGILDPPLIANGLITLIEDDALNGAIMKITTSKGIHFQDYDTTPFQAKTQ
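20 nM HPGD preincubated 15 min at room temperature with compound in 50 mM Tris-HCl pH 8, 0.01% Tween 20. Started with 1 mM NAD+ and 30 uM prostaglandin E2; NADH fluorescence (360/450 nm) read 5 times over 30-s intervals, last minus first.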
* hit, by the source's call; ? = inconclusive; & = joins results of further samples. % is scaled to controls: 0 for no effect and ±100 for the full control effect; potency is read from the fitted curve at half-maximal effect. Not all compounds are listed; the hit share may differ from the screen's.

HPGD inh | Compound
0% | Cn1c(Cn2c(=O)sc3ccccc32)nnc1SCC(=O)NCc1ccc2c(c1)OCO2
? | CS(=O)(=O)N(Cc1ccc(C(=O)NCCSCc2ccco2)cc1)c1ccccc1
-24% | O=C(c1cnc(N2CCN(c3ncccn3)CC2)c2ccccc12)N1CCN(c2ccccn2)CC1
-13% | c1ccc(C2COC(c3cccs3)=N2)cc1 (stereo not drawn)
-13% | Cc1ccc(/C=N\NC(=O)c2csnn2)cc1
-4% | O=c1[nH]c(SCc2cccc([N+](=O)[O-])c2)nc2nc[nH]c12
-5% | COc1ccccc1C(=O)NNC(=O)c1ccc(F)cc1
-8% | CCC(C(=O)Nc1cc(C)on1)c1ccccc1 (stereo not drawn)
-8% | COc1ccc(OC)c(-c2cc(C(=O)Nc3c(C)n(C)n(-c4ccccc4)c3=O)no2)c1
-8% | CCOC(=O)c1[nH]nc(-c2c(O)cc(C)cc2O)c1-c1csc(C)n1
-4% | Cc1nn2c(nc1=O)SCC(c1ccccc1)=N2
1% | O=C(NNC(=O)C1CCCO1)c1ccc(Br)cc1 (stereo not drawn)
-13% | CCN(CC)S(=O)(=O)c1ccc(-c2nnc(SCC(=O)Nc3ccc(OC)c(OC)c3)o2)cc1
-12% | O=C(Nn1cnnc1)c1cc2c(s1)CCCCC2
-16% | CC(C)(C)c1ccc(C(=O)Nc2ccc(C=C(C#N)C#N)cc2)cc1
? | CC(=O)c1c(O)cc(O)cc1O
-19% | COC(=O)c1ccc(C(=O)OC)c(NC(=O)COC(=O)C23CC4CC(CC(O)(C4)C2)C3)c1
? | CNc1ncnc2ccc(-c3cccc(NS(C)(=O)=O)c3)cc12
-19% | O=C(N/N=C/c1c(Cl)cccc1Cl)c1ccccc1F
-8% | CCOc1ccccc1OCCNC1CCCC1
-10% | COc1cccc(C2(O)CCN(C(=O)c3cccs3)CC2)c1
-13% | Cc1ccc(C(O)P(=O)(OC2CCCCC2)OC2CCCCC2)cc1 (stereo not drawn)
-12% | c1ccc(-c2nnc(OCCN3CCOCC3)c3ccccc23)cc1
-6% | CCCCNC(=O)NC1(C(F)(F)F)Oc2ccccc2O1
-6% | CCOC(=O)c1ccc(-n2ccnc2)c(NC(=O)c2cccc(Br)c2)c1
-6% | Cc1cccc(Cn2c(CN3CCN(Cc4ccccc4)CC3)nc3c2c(=O)[nH]c(=O)n3C)c1
-7% | COc1cc(NC(=O)C2CCCCC2)c(OC)cc1NC(=O)c1ccco1
-10% | Cc1cccc2cc(COC(=O)C3CCCCC3)c(=O)[nH]c12
1% | Cn1cccc1Cc1nnc(SCC(=O)N2CCOCC2)n1CCc1ccccc1
3% | Cc1ccc(CNC(=O)C(=O)NCCC2=CCCCC2)cc1
-10% | Cn1c(N)c(C(=O)COC(=O)c2cc(S(=O)(=O)N3CCCCC3)ccc2Cl)c(=O)n(C)c1=O
-16% | O=C(Oc1ccc2cc(Br)ccc2c1)N1CCCCCC1
-10% | CCOc1ccc(OCC)c(S(=O)(=O)N2CCCCC2C)c1 (stereo not drawn)
5% | C[C@H](NS(=O)(=O)c1ccccc1F)C(=O)OCC(=O)N1CCc2ccccc21
-14% | Cc1ccccc1-c1nnc(-c2ccccc2C)o1
-12% | CN(C)S(=O)(=O)c1cc(NC(=O)COC(=O)Cc2ccc(Br)cc2)ccc1Cl
-7% | Cc1cc([N+](=O)[O-])nn1CC(=O)NNC(=S)Nc1ccc(F)cc1
-15% | CCOC(=O)/C(=C\C=C\c1ccccc1)NC(=O)c1ccccc1
25µM* | Cc1ccc(O)c(C2=NNC(O)(C(F)(F)F)C2)c1 (stereo not drawn)
-7% | Cc1ccc(C(=O)Nc2ccc3c(c2)OCO3)cc1S(=O)(=O)N1CCCCC1
0% | CC/C(=C1/C(=O)CC(C)(C)C(C(=O)OC)C1=O)N1CCCC1 (stereo not drawn)
? | COc1cccc(-c2cc(=O)c3cc(NC(C)=O)ccc3[nH]2)c1
-10% | CC1(C(=O)O)CCC(C(=O)Nc2ccccc2O)C1(C)C (stereo not drawn)
-10% | CCCn1nnc(NC(=O)c2ccc(F)cc2)n1
-5% | O=C(CN1CCOCCOCCOCC1)Nc1ccccc1
? | CC1CN(S(=O)(=O)c2cccc(-c3cn4ccccc4n3)c2)CC(C)O1 (stereo not drawn)
-11% | COc1ccc(C2CC(=O)C(C=NCCCN3CCOCC3)=C(O)C2)cc1 (stereo not drawn)
-10% | COc1ccc(C2C(C(C)=O)=C(O)C(=O)N2c2cccnc2)cc1OC (stereo not drawn)
-22% | CSc1nsc(SCC(=O)Nc2ccc(Br)cn2)n1
-7% | CC(C)/C=N\NC(=O)CCCCC(=O)N/N=C/C(C)C

Next section:
HPGD inh | Compound
-19% | O=C(Nc1cccn(Cc2ccc(F)cc2)c1=O)NC1CCCCC1
-8% | COc1cccc(N2C(=O)CC(c3c[nH]c4ccccc34)C2=O)c1 (stereo not drawn)
-20% | Cc1ccc(NC(=O)CCn2cccc2)cc1C
-3% | CN(C(=O)c1ccccc1C(=O)OCC(=O)NCc1ccccc1)C1CCCCC1
-8% | Cc1cc(C(C)(C)C)cc(S(=O)(=O)NCCO)c1C
-18% | CCN(CC)S(=O)(=O)c1ccc(/C(O)=C(\C#N)c2nc3ccccc3n2C)cc1
-21% | COC(=O)[C@@]1(Cc2ccccc2)[C@H]2c3cc(C(=O)N4CCCC4)n(Cc4c(CO)[nH]cc(C)c4=O)c3C[C@H]2CN1C(=O)c1ccccc1
0% | CCn1cc(CNC(=O)c2cc(-c3cc(OC)ccc3OC)nc3ccccc23)c(C)n1
-24% | COc1cc(/C=C/C(=O)N2CCC=CC2=O)cc(OC)c1OC
0% | CCc1cc(=O)oc2cc(C)cc(OC(=O)c3ccco3)c12
-11% | Cc1ccc(Cl)cc1NC(=O)CC(O)(C(F)(F)F)C(F)(F)F
-6% | C=CCn1c(-c2ccc(OC)cc2)csc1=Nc1c(C)n(C)n(-c2ccccc2)c1=O
-15% | Cn1c(C(=O)O)c(CC(=O)Nc2ccc3c(c2)OCCO3)c2ccccc21
-6% | COc1ccc(CNC(=O)C2CCCN2C(=O)NC2CCCCC2)cc1 (stereo not drawn)
-8% | COc1ccc(/C=N/NC(=O)Nc2cccc3nsnc23)cc1OC
-1% | COC(=O)COc1ccc(S(=O)(=O)NCCC2=CCCCC2)cc1C
? | Cc1nc2c(C(=O)NCc3cccs3)cnn2c(C)c1Cc1ccccc1
-29% | Cc1cccc2cc(CN(CC3CCCO3)C(=O)c3ccco3)c(=O)[nH]c12 (stereo not drawn)
0% | COc1ccccc1C(=O)N/C(=C/c1ccc(Br)cc1)C(=O)NCCO
-16% | O=C(NCCc1ccccc1)C(NS(=O)(=O)c1cccc2nsnc12)c1ccccc1 (stereo not drawn)
-14% | COc1ccc(C2SCCN2C(=S)Nc2cccc(C(F)(F)F)c2)cc1 (stereo not drawn)
-13% | COC(=O)CCC(=O)Nc1ccc(Cl)c(Cl)c1
-7% | COc1ccc(N=C(C)C2=C(O)COC2=O)cc1
-6% | CCn1ncc(/C=C/C(=O)Nc2c(C)nn(Cc3ccc(Cl)cc3Cl)c2C)c1C
-16% | CCC1=NN(C(=O)c2cccc(Br)c2)C(O)(c2ccc(Br)cc2)C1 (stereo not drawn)

Pulled by structure from the entries so far (seven):
HPGD inh | Compound
-16% | CCC1=NN(C(=O)c2cccc(Br)c2)C(O)(c2ccc(Br)cc2)C1 (stereo not drawn)
-11% | Cc1ccc(Cl)cc1NC(=O)CC(O)(C(F)(F)F)C(F)(F)F
-8% | Cc1cc(C(C)(C)C)cc(S(=O)(=O)NCCO)c1C
-7% | COc1ccc(N=C(C)C2=C(O)COC2=O)cc1
-21% | COC(=O)[C@@]1(Cc2ccccc2)[C@H]2c3cc(C(=O)N4CCCC4)n(Cc4c(CO)[nH]cc(C)c4=O)c3C[C@H]2CN1C(=O)c1ccccc1
-6% | COc1ccc(CNC(=O)C2CCCN2C(=O)NC2CCCCC2)cc1 (stereo not drawn)
? | Cc1nc2c(C(=O)NCc3cccs3)cnn2c(C)c1Cc1ccccc1

Next part
HPGD inh | Compound
-6% | Clc1ccccc1C(Nc1ncccn1)Nc1ncccn1
-9% | O=C(C1=NN[C@@H]2C(=O)N(c3cccc(C(F)(F)F)c3)C(=O)[C@H]12)c1ccc2ccccc2n1
-8% | CCC1=C(OC(=O)c2ccccc2)C(C)(C)C(c2ccccc2)OC1=O (stereo not drawn)
5% | CCOC(=O)NC1(NC2CCCCC2)Oc2ccccc2O1
2.2µM* | Cc1nc(SCC(=O)c2ccc(Cl)s2)c2oc3ccccc3c2n1
-4% | COc1ccc(-c2csc(C3=C(O)CN(Cc4ccc(Cl)cc4)C3=N)n2)cc1OC
-16% | Cc1nnc(-c2cccc(Br)c2)c2cn(-c3ccccc3)nc12
-8% | O=C(O)[C@H](Cc1ccc(O)c([N+](=O)[O-])c1)N1C(=O)c2ccccc2C1=O
-1% | CC1(C)COC(c2cccc(C3=NC(C)(C)CO3)n2)=N1
? | Cc1noc(NS(=O)(=O)c2ccc(N/C=C\C(=O)c3ccc4c(c3)OCO4)cc2)c1C
-15% | CCOc1ccc(-c2noc(CCC(N)=O)n2)cc1OCC
-26% | CCN(CC)S(=O)(=O)c1cccc(C(=O)OCC(=O)Nc2ccc3c(c2)c2ccccc2n3CC)c1
1% | Cc1ccc(S(=O)(=O)NCC(=O)NC2CCCC2)cc1
-26% | Cc1cc(/C=C2/C(=N)N3C(c4ccccc4)=CSC3=NC2=O)c(C)n1-c1ccccc1
? | O=C(N/N=C\c1ccc(-c2ccc(Cl)c(Cl)c2)o1)C(=O)N1CCCC1
-8% | Cc1c(NC2=C(Cl)C(=O)N(c3ccccc3Cl)C2=O)c(=O)n(-c2ccccc2)n1C
-13% | O=[N+]([O-])c1cccc(S(=O)(=O)N2CCCC2)c1
-11% | COc1ccc(OC)c2[nH]c(=O)c(CCNC(=O)CC(C)C)cc12
-15% | COc1cc(-c2nnc(SCc3ccccc3Cl)o2)cc(OC)c1OC
-9% | Cc1nc(C)n(CC(O)COc2ccc3c(c2)CCC3)n1 (stereo not drawn)
-5% | Cc1cc(NC(NC(=O)c2ccco2)(C(F)(F)F)C(F)(F)F)no1
-7% | Cc1nc2ccc(NC(=O)N3CCOCC3)cc2s1
-7%&1%&-4% | CC(C)(Oc1ccc(CCNC(=O)c2ccc(Cl)cc2)cc1)C(=O)O
? | O=[N+]([O-])c1ccc(O)c(NC(=S)Nc2ccccc2)c1
-12% | COC(=O)C(C)N(C#N)c1nc(C)nc(C)n1 (stereo not drawn)
2% | N=C(N)SCc1nc2ccccn2c1Br
-16% | CCOC(=O)CSCc1nc(-c2ccc(Cl)cc2)oc1C
-17% | CCOCCCNC(=O)c1cn(CC(C)C)c(=O)c2cc(OC)c(OC)cc12
-8% | Cc1c(/C=N/NC(=O)C2(O)c3ccccc3-c3ccccc32)cnn1C
? | CS(=O)(=O)Nc1cccc(-c2ccc3ncnc(Nc4ccc(F)cc4)c3c2)c1
-3% | Cc1cc(C(=O)NCC(=O)OCC(=O)N(C(C)C)C(C)C)ccc1[N+](=O)[O-]
-12% | CCOC(=O)CC(=O)Nc1nnc(CC(C)C)s1
-9% | O=C(COC(=O)c1ccc(Br)cc1)NCCc1ccccc1
-10% | O=C(Nc1ccc(N2CCOCC2)cc1)c1ccc(Cl)nc1
-12% | CCCCCC(=O)NC(=S)Nc1ccc(Cl)cn1
-8% | O=C(CSc1nnc(-c2ccc(Cl)cc2)o1)N1CCN(c2ccccc2)CC1
-1% | O=C1NC(c2ccccc2)C(C(=O)c2cccs2)C(O)(C(F)(F)F)N1 (stereo not drawn)
-11% | Cc1ccc(N2C(=O)C(NC(=O)c3c(F)cccc3F)(C(F)(F)F)C3=C2CC(C)(C)CC3=O)cc1 (stereo not drawn)
-20% | O=C(COC(=O)CCOc1ccccc1)Nc1ncc(Cl)cc1Cl
-8% | COc1ccc(CNC(=O)C2CCCN(c3nc4ccccc4o3)C2)c(OC)c1 (stereo not drawn)
? | N#C/C(=C\c1ccc(OCC(N)=O)cc1)c1ccccc1
-1% | COc1cccc(C(=O)N2CCN(Cc3cccc(F)c3)CC2)c1
-12% | O=C(N/N=C/c1ccc(-c2ccc([N+](=O)[O-])cc2)o1)C(O)c1ccccc1 (stereo not drawn)
-6% | CCCOc1nc2c(c(=O)n(C)c(=O)n2C)n1Cc1cccc2ccccc12
-3% | CCOC(=O)CN(C)Cc1c[nH]c2ccccc12
8.9µM* | COc1cc(OC)c(C2CC(=O)N3CN(C)CSC3=C2C#N)cc1OC (stereo not drawn)
-9% | O=C(NC1CCCc2ccccc21)C1CCN(c2c3c(nc4ncnn24)CCC3)CC1 (stereo not drawn)
-16% | O=C(Nc1ccc(S(=O)(=O)N2CCCCCC2)cc1)c1ccco1
-2% | Cc1ccc(S(=O)(=O)NC(C)(C)CSc2ccccn2)cc1
-5% | COc1ccc(C)cc1NC(=O)CCCN1C(=O)CCC1=O

Next part:
HPGD inh | Compound
-5% | CC(=O)C1=C(C)Nc2ncnn2C1c1ccccc1OCc1ccccc1 (stereo not drawn)
-1% | COc1ccc(CCC(=O)NC2=NCCS2)cc1OC
3% | COc1ccc2c(c1)CCCN2C(N)=O
-13% | COc1ccccc1S(=O)(=O)Cc1ccc(C(=O)NCCN2CCCCCC2)o1

For reference, part of the list above:
HPGD inh | Compound
? | Cc1nc2c(C(=O)NCc3cccs3)cnn2c(C)c1Cc1ccccc1
-29% | Cc1cccc2cc(CN(CC3CCCO3)C(=O)c3ccco3)c(=O)[nH]c12 (stereo not drawn)
0% | COc1ccccc1C(=O)N/C(=C/c1ccc(Br)cc1)C(=O)NCCO
-16% | O=C(NCCc1ccccc1)C(NS(=O)(=O)c1cccc2nsnc12)c1ccccc1 (stereo not drawn)
